From PubChem BioAssay
Cruzain inh noDet – blocks cruzain activity in detergent-free assay; P25779; purified cruzain, Z-FR-AMC fluorescence, no detergent; Potency, µM, for the others: max response, negative = inhibition, usual class: inhibitors; hit rate 2.3% among 200,000; AID 1476; active = well fitted curve in the direction sought with a large enough effect; inconclusive = small, poorly fitted or top-dose-only effect, or another doubt; inactive = no such curve, though single readings can be large; an effect the other way counts as inactive or inconclusive;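 also: plate controls were enzyme without inhibitor for no effect and buffer without enzyme for full effect; nearly all actives have a fitted effect of over 40% in size; top concentration of the series not given in the record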
Target sequence (P25779 123-467 limits assumed): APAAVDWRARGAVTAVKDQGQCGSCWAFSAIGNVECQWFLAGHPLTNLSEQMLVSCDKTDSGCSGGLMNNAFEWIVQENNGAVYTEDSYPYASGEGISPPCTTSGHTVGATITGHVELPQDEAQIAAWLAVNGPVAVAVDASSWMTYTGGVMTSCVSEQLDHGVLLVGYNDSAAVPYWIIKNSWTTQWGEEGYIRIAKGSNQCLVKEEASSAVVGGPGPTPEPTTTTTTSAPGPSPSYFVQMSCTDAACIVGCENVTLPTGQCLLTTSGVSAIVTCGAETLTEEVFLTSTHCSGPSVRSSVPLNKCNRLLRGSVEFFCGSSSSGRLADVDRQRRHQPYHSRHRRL
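Detergent-free condition (0.00005% Triton X-100) in acetate buffer pH 5.5 with DTT. 1.5 nM enzyme and compound were pre-mixed 15 min, then 2 uM Z-FR-AMC substrate added; reaction progress from fluorescence change between first and third reads (60 s).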
SARS PLP yeast – inhibitors of SARS-CoV papain-like protease in yeast; S. cerevisiae expressing SARS-CoV PLpro, growth rescue; control for the full effect not named in the record; Potency, µM (series often up to 32.9 µM), inactives show at the top dose activity, positive = growth rescue; hit rate 0.19% among 330,000; AID 485353; also: 0% is about no effect; nearly all actives have a fitted effect of over 55% in size; growth read by luminescence after 48 h
NS1 function inh – influenza NS1 inhibition; AID 2326; hit rate 0.4% among 270,000; Potency, µM (series often up to 46.1 µM), for the others: top-dose activity, positive = more growth; S. cerevisiae slowed by influenza A NS1, growth recovery by OD600; also: actives are rising curves; nearly all actives have a fitted effect of over 50% in size
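A cell-based growth assay was used: compounds that relieve NS1-induced slow growth of budding yeast raise OD600. Assay medium was yeast nitrogen base with ammonium sulphate and -URA supplement, pH 6.0, with 2% galactose.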
2A StopGo – FMDV 2A StopGo reporter, luciferase signal | human cells with a luciferase reporter of 2A StopGo recoding; control for the full effect not named in the record | Potency, µM (titrated, usually from 57.9 µM), without a hit: at the top dose signal change, negative = less light | hit rate 1.2% among 410,000 | AID 1159524; active = well fitted falling curve with a large enough effect; inconclusive = small, poorly fitted or top-dose-only effect; inactive = no such curve, though single readings can be large or run the other way; tested in HEK293T cells; also: % is scaled to controls: 0 for no effect and ±100 for the full control effect; nearly all actives have a fitted effect of over 45% in size; luciferase light after 4 h
Lassa entry inh – inhibitors of Lassa virus binding or cell entry; Lassa virus pseudotype entry inhibition, cell reporter; control for the full effect not named in the record; hit rate 1.2% among 300,000; Potency, µM (series often up to 37.9 µM), for the others: top-dose activity change, negative = inhibition, usual class: inhibitors; active means well fitted inhibition curve with a large enough effect; inconclusive means small, poorly fitted or top-dose-only effect, or effect the other way; inactive means flat fitted curve, though single readings scatter; tested in HEK293 cells; also: % is scaled to controls: 0 for no effect and ±100 for the full control effect; nearly all actives have a fitted effect of over 50% in size; luciferase read-out
Marburg entry inh – blocks Marburg virus binding to or entry into cells. Marburg virus pseudotyped entry inhibition, cell reporter; control for the full effect not named in the record; about a third of the inactives were read at about 46 µM. Potency, µM (series often up to 37.8 µM), inactives show at the highest dose activity change, negative = inhibition, usual class: inhibitors. hit rate 1.8% among 300,000. AID 540276; active = well fitted inhibition curve with a large enough effect; inconclusive = small, poorly fitted or top-dose-only effect, or effect the other way; inactive = flat fitted curve, though single readings scatter; tested in HEK293 cells; about a fifth of its hits are not listed in these tables; also: % is scaled to controls: 0 for no effect and ±100 for the full control effect; luciferase read-out
RE007 growth inh – less growth of the S. pombe RE007 Vpr strain; S. pombe RE007 Vpr strain, BacTiter-Glo ATP luminescence, 24 h; control for the full effect not named in the record; Potency, µM (titrated, usually from 92.2 µM), inactives show top-dose activity change, negative = less growth; hit rate 0.21% among 360,000; AID 651644; active = well fitted falling curve with a large enough effect; inconclusive = small, poorly fitted or top-dose-only effect; inactive = no such curve, though single readings can be large or run the other way;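 also: % is scaled to controls: 0 for no effect and ±100 for the full control effect; nearly all actives have a fitted effect of over 50% in size; the assay follows cell death caused by Vpr and the record does not say whether a fall means rescue or toxicity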
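Fission yeast RE007 carrying one integrated HIV-1 vpr copy, seeded at OD 0.01 in PMG+AL medium with 23 nL pinned compound. Grown 24 h at 30 degrees; viability read by BacTiter-Glo luminescence after 5 min.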
Cruzain Triton – blocks cruzain activity in presence of Triton detergent; P25779; purified cruzain, Z-FR-AMC fluorescence, 0.01% Triton; Potency, µM, for the others: max response, negative = inhibition, most hits filed as inhibitors; hit rate 0.43% among 200,000; AID 1478; active = well fitted curve in the direction sought with a large enough effect; inconclusive = small, poorly fitted or top-dose-only effect, or another doubt; inactive = no such curve, though single readings can be large; an effect the other way counts as inactive or inconclusive;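 also: plate controls were neutral wells for no effect and buffer without enzyme for full effect; nearly all actives have a fitted effect of over 40% in size; top concentration of the series not given in the record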
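Detergent-containing run (0.01% Triton X-100) in acetate buffer pH 5.5 with 5 mM DTT: enzyme at 1.5 nM final, 15 min compound preincubation at room temperature, then 2 uM Z-FR-AMC substrate. Activity taken as 60 s fluorescence increase at 360/450 nm.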
* marks the source's active call; other numbers are inactive results; & = joins results of further samples; [ ] = remark or other dose. Unless noted, calls follow the shape of the dose curve; as a rule, active means well fitted rising curve with a large enough effect; inconclusive means small, poorly fitted or top-dose-only effect; inactive means no such curve, though single readings can be large or run the other way. Potency is read from the fitted curve at half-maximal effect. Hits appear at their usual frequency, and some 4.5% of all compounds hit somewhere here.

Results for Cc1ccc(C)c(N(C(=O)c2csnn2)C(C(=O)NC2CCCC2)c2cccnc2)c1 (stereo not given) ?
SARS PLP yeast: 5%; NS1 function inh: 5%; 2A StopGo: 11%; Lassa entry inh: -1%; Marburg entry inh: 3%[46.1 µM]; RE007 growth inh: 6%

Results for CN=c1scc(-c2ccc(Br)cc2)n1C ?
Cruzain inh noDet: -5%; SARS PLP yeast: 2%; NS1 function inh: 2%; 2A StopGo: -6%; Lassa entry inh: 19%; Marburg entry inh: 7%[46.1 µM]; RE007 growth inh: -6%; Cruzain Triton: 2.4%

What do the screens show for `COc1ccc(N(C(=O)c2ccco2)C(C(=O)NC2CCCC2)c2ccc(N(C)C)cc2)cc1OC` (stereo not given)?
Cruzain inh noDet: 12%; SARS PLP yeast: 15%; NS1 function inh: -7%; 2A StopGo: -1%; Lassa entry inh: 0%; Marburg entry inh: 7%&7%; RE007 growth inh: 8%; Cruzain Triton: -1.0%

Results for CSc1ccc(CNc2ccc(C)c(C)c2)cc1 ?
Cruzain inh noDet: -8%; SARS PLP yeast: 7%; NS1 function inh: 1%; Lassa entry inh: inconclusive; Marburg entry inh: 0%; RE007 growth inh: -9%; Cruzain Triton: -3.4%

What do the screens show for `Cn1c(=O)n(C)c2cc(N3CCOCC3)c(NC(=O)c3ccc(Cl)cc3)cc21`?
Cruzain inh noDet: -1%; 2A StopGo: -12%; Lassa entry inh: 10%[46.1 µM]; Marburg entry inh: inconclusive; Cruzain Triton: 0.3%

What do the screens show for `CC(C)c1cc(=O)n2c(nc3ccccc32)[nH]1`?
SARS PLP yeast: -4%; NS1 function inh: -24%; 2A StopGo: 0%; RE007 growth inh: -19%

What do the screens show for `NC(=O)C1c2ccccc2CSc2ccccc21` (stereo not given)?
Cruzain inh noDet: -10%; SARS PLP yeast: -4%; NS1 function inh: 3%; 2A StopGo: -6%; Lassa entry inh: 1%; Marburg entry inh: 6%; RE007 growth inh: 46%; Cruzain Triton: -1.7%

How did O=C(O)COc1ccc(/C=N/n2cnc3scc(-c4cccs4)c3c2=O)cc1 do in these assays?
Cruzain inh noDet: 71%; SARS PLP yeast: 11%; NS1 function inh: 6%; 2A StopGo: -18%; Lassa entry inh: 5%; Marburg entry inh: inconclusive; Cruzain Triton: -9.8%

What do the screens show for `CCC(C)[C@H](N)c1nnc(SCC(=O)c2ccc(Cl)cc2)o1` (stereo not given in full)?
Cruzain inh noDet: 0%; SARS PLP yeast: -3%; NS1 function inh: 9%; 2A StopGo: 2%; Lassa entry inh: inconclusive; Marburg entry inh: -7%; RE007 growth inh: 4%; Cruzain Triton: -14%

Results for Cc1cc(C)c(N=C2C(=O)Nc3ccccc32)c(C)c1 ?
SARS PLP yeast: 2%; NS1 function inh: -1%; 2A StopGo: -24%; Lassa entry inh: -14%[46.1 µM]; Marburg entry inh: 27%[46.1 µM]; RE007 growth inh: -12%

What do the screens show for `OCC(O)/C=N/Nc1nc2ccccc2s1` (stereo not given)?
SARS PLP yeast: -6%; 2A StopGo: 40%[activator]; Lassa entry inh: 9%; Marburg entry inh: inconclusive; RE007 growth inh: 33%

What do the screens show for `COc1ccc(N2C(=O)CSC23C(=O)Nc2ccccc23)cc1OC` (stereo not given)?
Cruzain inh noDet: 0%; SARS PLP yeast: -1%; NS1 function inh: -6%; 2A StopGo: 10%; Lassa entry inh: -1%; Marburg entry inh: 7%; RE007 growth inh: 3%; Cruzain Triton: 6.1%

How did CC(Sc1nnc(C(F)(F)F)n1C)C(=O)Nc1ccc(S(N)(=O)=O)cc1 (stereo not given) do in these assays?
SARS PLP yeast: 0%; NS1 function inh: 1%; 2A StopGo: -7%; RE007 growth inh: -9%

How did Cc1ccc(NC(=O)N2CCc3ccccc32)cc1C do in these assays?
SARS PLP yeast: -2%; 2A StopGo: -34%; Lassa entry inh: inconclusive; Marburg entry inh: inconclusive; RE007 growth inh: -27%

Results for Cc1ccc(OCC(O)CN2C(=O)NC(C)(C)C2=O)c(C)c1 (stereo not given) ?
SARS PLP yeast: 1%; NS1 function inh: -2%; 2A StopGo: 9%; Lassa entry inh: 4%; Marburg entry inh: 20%; RE007 growth inh: -5%

Continued; the last 2 above are carried over.
How did Cc1ccc(NC(=O)N2CCc3ccccc32)cc1C do in these assays?
SARS PLP yeast: -2%; 2A StopGo: -34%; Lassa entry inh: inconclusive; Marburg entry inh: inconclusive; RE007 growth inh: -27%

Results for Cc1ccc(OCC(O)CN2C(=O)NC(C)(C)C2=O)c(C)c1 (stereo not given) ?
SARS PLP yeast: 1%; NS1 function inh: -2%; 2A StopGo: 9%; Lassa entry inh: 4%; Marburg entry inh: 20%; RE007 growth inh: -5%

Results for Cc1ccc(NC(=O)CCc2nnc3ccc(NCc4ccco4)nn23)cc1 ?
SARS PLP yeast: -7%; NS1 function inh: 6%; 2A StopGo: 3%; Lassa entry inh: -17%[46.1 µM]; Marburg entry inh: 14%[46.1 µM]; RE007 growth inh: 5%

How did COc1cccc(NC(=S)N(CCc2ccc(OC)c(OC)c2)Cc2ccccn2)c1 do in these assays?
SARS PLP yeast: inconclusive; NS1 function inh: -8%; 2A StopGo: -12%; Lassa entry inh: -1%[46.1 µM]; Marburg entry inh: 2%[46.1 µM]; RE007 growth inh: 3%

What do the screens show for `COc1ccc(N2CCN(Cc3cc(=O)oc4cc(C)c(Cl)c(C)c34)CC2)cc1`?
Cruzain inh noDet: 4%; SARS PLP yeast: -3%; NS1 function inh: -9%; 2A StopGo: -4%; Lassa entry inh: inconclusive; Marburg entry inh: -3%&0%; RE007 growth inh: -2%; Cruzain Triton: 5.0%

What do the screens show for `O=c1c2cccc3c(N4CCOCC4)ccc(c32)c2nc3ccccc3n12`?
Cruzain inh noDet: 29%; SARS PLP yeast: -2%; NS1 function inh: -4%; Marburg entry inh: -2%; Cruzain Triton: 3.0%

How did O=C(CN1C(=O)C2(SCC(=O)N2c2ccc(F)c(F)c2)c2ccccc21)NCCc1ccccc1 (stereo not given) do in these assays?
Cruzain inh noDet: 12%; 2A StopGo: -16%; Lassa entry inh: -9%[46.1 µM]; Cruzain Triton: -3.4%

What do the screens show for `O=C(NCc1nc2ccccc2[nH]1)C1=C[C@H](c2ccc3c(c2)OCO3)C[C@H](OCCCCO)O1`?
SARS PLP yeast: 0%; NS1 function inh: -1%; 2A StopGo: 10%; RE007 growth inh: -6%

What do the screens show for `CCCCC(C(=O)NC1CCCC1)N(Cc1ccccc1)C(=O)c1snc(C(N)=O)c1N` (stereo not given)?
SARS PLP yeast: -1%; NS1 function inh: -5%; 2A StopGo: -14%; Lassa entry inh: inconclusive; Marburg entry inh: inconclusive; RE007 growth inh: -12%

Results for COc1ccc(C(=O)NCCn2cc(SCC(=O)Nc3ccc(C)cc3)c3ccccc32)cc1 ?
Cruzain inh noDet: -9%; 2A StopGo: -8%; Lassa entry inh: inconclusive; Cruzain Triton: 0.1%

How did CCOC(=O)C1CCN(C(=O)CC(NS(=O)(=O)c2ccc(OC)cc2)C(C)C)CC1 (stereo not given) do in these assays?
Cruzain inh noDet: 4%; SARS PLP yeast: 1%; NS1 function inh: -27%; 2A StopGo: 14%; Lassa entry inh: inconclusive; Marburg entry inh: inconclusive; RE007 growth inh: -3%; Cruzain Triton: 2.6%

How did O=C(NNC(=O)c1cc2ccccc2o1)c1ccc(Cl)cc1 do in these assays?
SARS PLP yeast: -4%; NS1 function inh: -8%; 2A StopGo: 9%; Lassa entry inh: 5%; Marburg entry inh: inconclusive; RE007 growth inh: -10%

How did O=C(c1ccc(Br)cc1)N1CCN(c2ncccn2)CC1 do in these assays?
2A StopGo: 24%; Lassa entry inh: 19%[46.1 µM]; Marburg entry inh: -1%[46.1 µM]; RE007 growth inh: -22%

How did FC(F)(F)c1ccc(Oc2ccc3cc(Br)ccc3c2)nc1 do in these assays?
Cruzain inh noDet: inconclusive; SARS PLP yeast: -1%; NS1 function inh: 0%; 2A StopGo: -8%; RE007 growth inh: -5%; Cruzain Triton: -8.9%

How did COc1ccc(C(=O)NC2CCN(C(=O)NC3CCCCC3)CC2)cc1 do in these assays?
Cruzain inh noDet: 2%; SARS PLP yeast: 6%; NS1 function inh: -2%; 2A StopGo: -5%; Lassa entry inh: 0%; Marburg entry inh: inconclusive; RE007 growth inh: -19%; Cruzain Triton: -2.3%

What do the screens show for `O=[N+]([O-])c1cc(/C=N/O)ccc1N1CCCC1`?
SARS PLP yeast: 1%; 2A StopGo: 12%; Lassa entry inh: 16%; Marburg entry inh: 2%[46.1 µM]; RE007 growth inh: -4%

How did O=C(NCc1n[nH]c(=S)n1-c1ccc([N+](=O)[O-])cc1)c1ccc(S(=O)(=O)N2CCOCC2)cc1 do in these assays?
SARS PLP yeast: -5%; 2A StopGo: 1%; Marburg entry inh: 0%; RE007 growth inh: 9%

What do the screens show for `O=c1nc(-c2ccccc2)n(-c2ccccc2)[nH]1`?
Cruzain inh noDet: -3%; SARS PLP yeast: 1%; NS1 function inh: 6%; 2A StopGo: -14%; Lassa entry inh: 9%; Marburg entry inh: inconclusive; RE007 growth inh: 1%; Cruzain Triton: -1.2%

How did COCCNC(=O)CSc1nnc(-c2ccc(C)cc2)c(-c2ccc(C)cc2)n1 do in these assays?
SARS PLP yeast: -1%; NS1 function inh: -5%; 2A StopGo: -7%; Lassa entry inh: inconclusive; Marburg entry inh: 3%[46.1 µM]; RE007 growth inh: 4%

How did CCN(CC(=O)Nc1ccc(NC(C)=O)cc1)C(=O)C1COc2ccccc2O1 (stereo not given) do in these assays?
SARS PLP yeast: -10%; NS1 function inh: 10%; 2A StopGo: -23%; Lassa entry inh: -15%; Marburg entry inh: inconclusive; RE007 growth inh: -26%

What do the screens show for `COc1ccccc1/C=C/C(=O)NC(=S)N1CCOCC1`?
SARS PLP yeast: inconclusive; NS1 function inh: -1%; 2A StopGo: 70%[activator]; Lassa entry inh: inconclusive; Marburg entry inh: inconclusive; RE007 growth inh: -3%
